Cruzain inh noDet – qHTS Assay for Promiscuous and Specific Inhibitors of Cruzain (without detergent) | Cruzipain (Trypanosoma cruzi), P25779 | purified cruzain, Z-FR-AMC fluorescence, no detergent | Potency, µM, for the others: max response, negative = inhibition, hits mostly inhibitors | 200,000 compounds, 2.3% hits;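 further: plate controls were enzyme without inhibitor for no effect and buffer without enzyme for full effect; nearly all actives have a fitted effect of over 40% in size; top concentration of the series not given in the record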
Target sequence (P25779 123-467 limits assumed): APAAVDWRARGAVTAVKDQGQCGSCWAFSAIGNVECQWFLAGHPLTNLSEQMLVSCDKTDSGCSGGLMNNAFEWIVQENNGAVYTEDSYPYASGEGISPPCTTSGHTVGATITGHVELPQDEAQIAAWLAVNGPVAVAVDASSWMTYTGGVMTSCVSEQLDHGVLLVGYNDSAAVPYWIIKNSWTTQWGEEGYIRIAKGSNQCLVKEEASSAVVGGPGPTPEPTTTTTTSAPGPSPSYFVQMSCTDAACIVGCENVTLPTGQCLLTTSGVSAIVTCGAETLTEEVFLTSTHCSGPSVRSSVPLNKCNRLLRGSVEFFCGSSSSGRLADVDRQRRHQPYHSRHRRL
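Detergent-free condition (0.00005% Triton X-100) in acetate buffer pH 5.5 with DTT. 1.5 nM enzyme and compound were pre-mixed 15 min, then 2 uM Z-FR-AMC substrate added; reaction progress from fluorescence change between first and third reads (60 s).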
Cruzain Triton – qHTS Assay for Promiscuous and Specific Inhibitors of Cruzain (with detergent); purified cruzain, Z-FR-AMC fluorescence, 0.01% Triton; Potency, µM, for inactives: max response, negative = inhibition, most hits filed as inhibitors; 200,000 compounds, 0.43% hits; AID 1478, 2009;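 further: plate controls were neutral wells for no effect and buffer without enzyme for full effect; nearly all actives have a fitted effect of over 40% in size; top concentration of the series not given in the record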
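Detergent-containing run (0.01% Triton X-100) in acetate buffer pH 5.5 with 5 mM DTT: enzyme at 1.5 nM final, 15 min compound preincubation at room temperature, then 2 uM Z-FR-AMC substrate. Activity taken as 60 s fluorescence increase at 360/450 nm.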
2A StopGo – High Throughput Screening for Foot and Mouth Disease Virus Antivirals; AID 1159524, 2015; human cells with a luciferase reporter of 2A StopGo recoding; control for the full effect not named in the record; Potency, µM (top dose mostly 57.9 µM), without a hit: top-dose signal change, negative = less light; 410,000 compounds, 1.2% hits; active = well fitted falling curve with a large enough effect; inconclusive = small, poorly fitted or top-dose-only effect; inactive = no such curve, though single readings can be large or run the other way; tested in HEK293T cells; further: nearly all actives have a fitted effect of over 45% in size; luciferase light after 4 h
* hit, by the source's call; u = inconclusive; & = joins results of further samples; [ ] = another dose, or the depositor's remark. Unless noted, the call rests on the fitted dose curve; in most records, active means well fitted curve in the direction sought with a large enough effect; inconclusive means small, poorly fitted or top-dose-only effect, or another doubt; inactive means no such curve, though single readings can be large; an effect the other way counts as inactive or inconclusive. Unless noted, on the % scale 0 is the no-effect control and ±100 the full control effect; potency means the concentration at half of the fitted maximal effect. Only part of the results is shown; the hit share may differ from the screen's.

[1] COc1ccccc1-c1ccc2ncnc(NCc3cccnc3)c2c1
- Cruzain inh noDet = 2%
- Cruzain Triton = 2.4%
- 2A StopGo = u
[2] CN(Cc1ccco1)c1nc(-c2ccccc2C(F)(F)F)nc2ccccc12
- Cruzain inh noDet = -1%
- Cruzain Triton = -5.5%
- 2A StopGo = -18%
[3] COc1ncc2ncc(=O)n(C[C@H]3CCCO3)c2n1
- Cruzain inh noDet = -2%
- Cruzain Triton = -2.7%
- 2A StopGo = -11%
[4] C=CCCCCCCCCCCC/C=C/C(O)COC(C)=O (stereo not drawn)
- Cruzain inh noDet = u
- Cruzain Triton = -13%
- 2A StopGo = -6%
[5] CC(=O)OCC(=O)C1CCC2C3CC=C4CC(O)CC[C@@]4(C)C3CC[C@]12C (stereo partly drawn)
- Cruzain inh noDet = -1%
- Cruzain Triton = -1.5%
- 2A StopGo = -6%
[6] COCCn1c(=O)c(-c2ccccc2)nc2cnc(Nc3cccc(OC)c3)nc21
- Cruzain inh noDet = -4%
- Cruzain Triton = 3.0%
- 2A StopGo = -17%
[7] CC(=O)OCC(=O)[C@]1(O)C(OC(C)=O)CC2C3CCC4=CC(=O)C=C[C@@]4(C)[C@]3(F)C(O)C[C@]21C (stereo partly drawn)
- Cruzain inh noDet = -2%
- Cruzain Triton = 0.8%
- 2A StopGo = -10%
[8] Cc1cnc(CNc2nc(-c3ccc(N(C)C)cc3)nc3ccccc23)cn1
- Cruzain inh noDet = 12%
- Cruzain Triton = -7.9%
- 2A StopGo = 39%[activator]
[9] C[C@](N)(COP(=O)(O)O)C(=O)O
- Cruzain inh noDet = -5%
- Cruzain Triton = -0.6%
- 2A StopGo = -26%
[10] CC(CC(O)C1OC1(C)C)C1CCC2(C)C3=CCC4C(C)(C)C(=O)CCC4(C)C3CC[C@@]12C (stereo partly drawn)
- Cruzain inh noDet = u
- Cruzain Triton = -2.7%
- 2A StopGo = -3%
[11] CN(C(=O)Cc1ccc(Cl)c(Cl)c1)[C@H](CN1CCCC1)c1ccccc1
- Cruzain inh noDet = 12%
- Cruzain Triton = -2.8%
- 2A StopGo = -11%&-1%
[12] C[C@@H](CC(=O)O)[C@@H](N)C(=O)O
- Cruzain inh noDet = 2%
- Cruzain Triton = -4.0%
- 2A StopGo = -10%&0%
[13] CC(=O)O[C@@H]1C[C@@]2(C)C(c3ccoc3)C[C@H]3O[C@]32[C@]2(C)C(=O)C(O)=C3C(C)(C)C(=O)C=C[C@]3(C)C12 (stereo partly drawn)
- Cruzain inh noDet = u
- Cruzain Triton = -3.9%
- 2A StopGo = 25µM*
[14] O=c1c(-c2ccccc2)nc2cnc(N3CCNCC3)nc2n1C1CC1
- Cruzain inh noDet = -10%
- Cruzain Triton = -14%
- 2A StopGo = -13%
[15] COc1cccc(-c2nc(NCc3cccnc3)c3ccccc3n2)c1
- Cruzain inh noDet = 8%
- Cruzain Triton = -2.9%
- 2A StopGo = 5%
[16] N[C@H](C(=O)O)C1[C@H](C(=O)O)[C@H]1C(=O)O (stereo partly drawn)
- Cruzain inh noDet = -4%
- Cruzain Triton = 1.6%
- 2A StopGo = -19%
[17] COc1cccc(C=NC=Nc2cccc(OC)c2)c1
- Cruzain inh noDet = 4%
- Cruzain Triton = -1.0%
- 2A StopGo = 14%
[18] CC(C)=CCCC1(C)C=Cc2c(O)c3c(c(CC=C(C)C)c2O1)OC12C(=CC4CC1C(C)(C)OC2(C/C=C(/C)C(=O)O)C4=O)C3=O (stereo not drawn)
- Cruzain inh noDet = u
- Cruzain Triton = -9.3%
- 2A StopGo = 5.6µM*
[19] O=c1cnc2cnc(Oc3ccccc3)nc2n1Cc1ccc(F)cc1
- Cruzain inh noDet = 23%
- Cruzain Triton = 4.4%
- 2A StopGo = -16%
[20] COC(=O)/C(C)=C\CC12OC(C)(C)C3CC(C=C4C(=O)c5c(OC)c6c(c(CC=C(C)C)c5OC431)OC(C)(CCC=C(C)C)C=C6)C2=O (stereo not drawn)
- Cruzain inh noDet = u
- Cruzain Triton = -4.5%
- 2A StopGo = 32µM*
[21] N#Cc1ccccc1-c1ccc2ncnc(NCc3ccccc3)c2c1
- Cruzain inh noDet = -3%
- Cruzain Triton = 8.2%
- 2A StopGo = 0%
[22] COCCn1c(=O)cnc2cnc(N3CCNCC3)nc21
- Cruzain inh noDet = -14%
- Cruzain Triton = -12%
- 2A StopGo = -7%
[23] COc1ncc2nc(CCc3ccccc3)c(=O)n(-c3ccccc3)c2n1
- Cruzain inh noDet = 3%
- Cruzain Triton = -8.4%
- 2A StopGo = 1%
[24] O=c1cc(-c2ccc(O)c(O)c2)oc2ccccc12
- Cruzain inh noDet = u
- Cruzain Triton = -24%
- 2A StopGo = 50%[activator]
[25] Cc1cnc(CNc2nc(-c3ccc(C(=O)N(C)C)cc3)nc3ccccc23)cn1
- Cruzain inh noDet = -3%
- Cruzain Triton = -2.0%
- 2A StopGo = 76%[activator]

5 entries picked at random from those above, as already listed:
[7] CC(=O)OCC(=O)[C@]1(O)C(OC(C)=O)CC2C3CCC4=CC(=O)C=C[C@@]4(C)[C@]3(F)C(O)C[C@]21C (stereo partly drawn)
- Cruzain inh noDet = -2%
- Cruzain Triton = 0.8%
- 2A StopGo = -10%
[6] COCCn1c(=O)c(-c2ccccc2)nc2cnc(Nc3cccc(OC)c3)nc21
- Cruzain inh noDet = -4%
- Cruzain Triton = 3.0%
- 2A StopGo = -17%
[8] Cc1cnc(CNc2nc(-c3ccc(N(C)C)cc3)nc3ccccc23)cn1
- Cruzain inh noDet = 12%
- Cruzain Triton = -7.9%
- 2A StopGo = 39%[activator]
[15] COc1cccc(-c2nc(NCc3cccnc3)c3ccccc3n2)c1
- Cruzain inh noDet = 8%
- Cruzain Triton = -2.9%
- 2A StopGo = 5%
[14] O=c1c(-c2ccccc2)nc2cnc(N3CCNCC3)nc2n1C1CC1
- Cruzain inh noDet = -10%
- Cruzain Triton = -14%
- 2A StopGo = -13%

(more compounds)
[26] COC(=O)C(O)C1C(C)(C)C(OC(C)=O)C2CC3=C4CC(=O)OC(c5ccoc5)[C@]4(C)CCC3[C@@]1(C)C2=O (stereo partly drawn)
- Cruzain inh noDet = 0%
- Cruzain Triton = -2.1%
- 2A StopGo = 0%
[27] COc1cccc(Cn2c(=O)c(C)nc3cnc(Nc4cccc(OC)c4)nc32)c1
- Cruzain inh noDet = -9%
- Cruzain Triton = 1.3%
- 2A StopGo = -20%
[28] c1nc(NC2CCNCC2)c2cc(-c3ccc4c(c3)OCO4)ccc2n1
- Cruzain inh noDet = -3%
- Cruzain Triton = -3.5%
- 2A StopGo = -19%
[29] CC(C)CN1CC2(CCN(S(=O)(=O)c3ccccc3)CC2)C1
- Cruzain inh noDet = -9%
- Cruzain Triton = 0.0%
- 2A StopGo = -5%
[30] C[N+](C)(C)CCCCCNCC12CC3CC(CC(C3)C1)C2
- Cruzain inh noDet = 16%
- Cruzain Triton = -1.5%
- 2A StopGo = -9%
[31] Cc1ccccc1-c1cncnc1NCc1cccnc1
- Cruzain inh noDet = 2%
- Cruzain Triton = 0.1%
- 2A StopGo = -6%
[32] COc1cc2c(cc1OC)C1C(=O)c3c(cc4c(c3O)C=CC(C)(C)O4)OC1CO2 (stereo not drawn)
- Cruzain inh noDet = u
- Cruzain Triton = -8.6%
- 2A StopGo = u
[33] O=c1c(-c2ccc(Cl)cc2)nc2cncnc2n1Cc1ccccc1
- Cruzain inh noDet = -15%
- Cruzain Triton = -0.1%
- 2A StopGo = -3%
[34] CNC1C(O)C(O[C@H]2C(O)[C@@H](OC3OC(CN)=CCC3N)[C@H](N)C[C@@H]2N)OC[C@]1(C)O (stereo partly drawn)
- Cruzain inh noDet = 2%
- Cruzain Triton = 3.9%
- 2A StopGo = -18%
[35] CN(C)c1ccc(-c2nc(Nc3ccncc3)c3ccccc3n2)cc1
- Cruzain inh noDet = -9%
- Cruzain Triton = -11%
- 2A StopGo = -10%
[36] COc1cccc(Nc2ncc3nc(CCc4ccccc4)c(=O)n(CCC#N)c3n2)c1
- Cruzain inh noDet = -1%
- Cruzain Triton = -0.8%
- 2A StopGo = u
[37] O=c1c(-c2ccc(F)cc2)nc2cnc(Oc3ccccc3)nc2n1C1CC1
- Cruzain inh noDet = -1%
- Cruzain Triton = 1.1%
- 2A StopGo = -2%
[38] COc1cccc(Nc2ncc3nc(-c4ccc(F)cc4)c(=O)n(CCC#N)c3n2)c1
- Cruzain inh noDet = -10%
- Cruzain Triton = 0.0%
- 2A StopGo = -18%
[39] COc1c(CO)cc(CO)cc(CO)c1=O
- Cruzain inh noDet = -12%
- Cruzain Triton = -3.9%
- 2A StopGo = -11%
[40] N[C@@H](Cc1cc(-c2ccc(Cl)cc2Cl)cc(CP(=O)(O)O)c1O)C(=O)O
- Cruzain inh noDet = 0%
- Cruzain Triton = 1.8%
- 2A StopGo = -5%
[41] COCC(=O)N1CCC2(CC1)CCN(c1ccccn1)CC2
- Cruzain inh noDet = 1%
- Cruzain Triton = 2.7%
- 2A StopGo = -11%
[42] CS(=O)(=O)Nc1cccc(-c2nc(NCc3cccs3)c3ccccc3n2)c1
- Cruzain inh noDet = u
- Cruzain Triton = -12%
- 2A StopGo = 3%
[43] Cc1noc(C)c1C(=O)N1CCC2(CC1)CN(c1cccc(-c3ccccc3)c1)C2
- Cruzain inh noDet = u
- Cruzain Triton = -3.4%
- 2A StopGo = u
[44] COc1cccc(-c2nccc(NC3CCNCC3)n2)c1
- Cruzain inh noDet = -6%
- Cruzain Triton = -4.6%
- 2A StopGo = 9%
[45] O=c1cnc2cnc(Oc3cccc(Cl)c3)nc2n1CCc1ccccc1
- Cruzain inh noDet = u
- Cruzain Triton = -1.8%
- 2A StopGo = 3%
[46] CN(C)CCc1ccc(O)cc1
- Cruzain inh noDet = -3%
- Cruzain Triton = -0.5%
- 2A StopGo = 6%
[47] Cc1cnc(CNc2ncncc2-c2ccc3c(c2)OCO3)cn1
- Cruzain inh noDet = 1%
- Cruzain Triton = -0.3%
- 2A StopGo = -1%
[48] C=CC(=O)c1ccc2ccccc2c1
- Cruzain inh noDet = 2.5µM*
- Cruzain Triton = 4µM*
- 2A StopGo = -10%

Among those listed so far, these have sulfur:
[29] CC(C)CN1CC2(CCN(S(=O)(=O)c3ccccc3)CC2)C1
- Cruzain inh noDet = -9%
- Cruzain Triton = 0.0%
- 2A StopGo = -5%
[42] CS(=O)(=O)Nc1cccc(-c2nc(NCc3cccs3)c3ccccc3n2)c1
- Cruzain inh noDet = u
- Cruzain Triton = -12%
- 2A StopGo = 3%

Entries by screen from the entries so far.
Cruzain Triton, nos. 38–45, in order: 0.0%, -3.9%, 1.8%, 2.7%, -12%, -3.4%, -4.6%, -1.8%
2A StopGo, nos. 38–45, in order: -18%, -11%, -5%, -11%, 3%, u, 9%, 3%
